High-throughput results deposited in PubChem BioAssay by National Center for Advancing Translational Sciences (NCATS).
PK Bst: pyruvate kinase (B. stearothermophilus) modulation; partly purified Bacillus stearothermophilus pyruvate kinase, luminescence ATP production; ribose 5-phosphate activator present at AC10; Potency, µM; actives 1.2% (n = 51,000); in the data active means potency below about 11 µM; inconclusive means mostly about 12 µM to 25 µM; inactive means weaker than that;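 the screen sought inhibitors and activators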;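 further: potency means the concentration at half of the fitted maximal effect; scaled between full activation by ribose 5 phosphate and full inhibition by luteolin; about four in five hits inhibit and the cells do not say which; series up to 57 µM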
YjeE inh: displaces an ADP probe from E. coli YjeE (TsaE); Potency, µM; actives 0.05% (n = 71,000); purified YjeE, fluorescence polarisation of a bound ADP probe; active = well fitted falling curve; inconclusive = weaker or top-dose-only fall, or a rising curve; inactive = flat or poorly fitted curve;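 further: top concentration of the series not given in the record; excess ADP was the control for the full effect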
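Purified YjeE (10 uM) with BODIPY Texas Red-labeled ADP probe (2 uM); compounds pin-transferred, 15 min at room temperature. Binding inhibition read as decreased fluorescence polarization; ADP titration as control.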
The depositor's hits bear a star; i = inactive; ? = inconclusive; · = no result given. This is a subset (hit frequency here may not be typical).

SMILES	PK Bst	YjeE inh
O=C(CSc1nc2ccccc2[nH]1)Nc1ccccc1N1CCOCC1	>57	i
CS(=O)(=O)N(Cc1nc2sc3c(c2c(=O)[nH]1)CCCC3)C1CCCCC1	>57	i
CC(C)NC(=O)COC(=O)c1ccc(O)cc1	>57	i
O=C(NCCN1Cc2ccccc2C1=O)c1cccs1	>57	i
C=CCSC1=C(C#N)C(c2cc(Br)c(O)c(OC)c2)CC(=O)N1 (stereo not given)	>57	i
O=C(c1ccco1)N1CCN(S(=O)(=O)c2ccc3c(c2)OCCO3)CC1	>57	i
COc1cc2c(cc1OC)-c1cc(=Nc3c(C)cc(C)cc3C)n(C)c(=O)n1CC2	·	i
CC(C)C(NS(=O)(=O)c1ccc2c(c1)OCCO2)C(=O)NCCc1ccccn1 (stereo not given)	>57	i
O=C(CCN1C(=O)c2cccnc2C1=O)NC1CCCCCC1	>57	i
Cn1nnc2cc(NC(=O)NCc3ccc4c(c3)OCO4)ccc21	>57	i
O=C(O)CC[C@@H](NC(=O)c1ccccc1C(=O)O)C(=O)O	·	i
Cc1cc(NC(=O)CCc2ccc(C)o2)no1	>57	i
O=C(NCc1ccccc1F)C1CCCN(C(=O)NC2CCCCC2)C1 (stereo not given)	>57	i
O=c1[nH]c(=O)n([C@H]2C[C@H](O)[C@@H](CO)O2)cc1Br	·	i
CN(C)c1ccc(O)c2c1CC1CC3[C@@H](N(C)C)C(=O)C(C(N)=O)=C(O)[C@]3(O)C(=O)C1=C2O (stereo not given in full)	>11	·
Cc1cc(C)cc(N2CCCn3c2nc2c3c(=O)n(CC(=O)OCc3ccccc3)c(=O)n2C)c1	>57	i
Cc1ccc(C2Nc3ccccc3C(=O)N2Cc2ccco2)cc1 (stereo not given)	>57	i
C=CCc1cccc2cc(C(=O)N(C)C)c(=O)oc12	·	i
O=C(c1ccccc1)c1cccc(NC(=O)c2ccco2)c1	·	i
COc1ccccc1Nc1nc(N)nc(CSc2nncn2C)n1	>57	i
O=C(CSc1nc2cc(Cl)ccc2s1)c1ccco1	>57	i
COc1ccc2ccc(Oc3ncccn3)cc2c1	>57	i
O=C(NCc1ccc(F)cc1)c1c(O)c2cccc3c2n(c1=O)CCC3	>57	i
CC1CCCCN1S(=O)(=O)c1cccc2cccnc12 (stereo not given)	·	i
CCOC(=O)c1sc(NC(=O)CCN2CCOCC2)c(C(=O)OCC)c1C	>57	i
CS(=O)(=O)Nn1cnc2ccccc2c1=O	>57	i
COc1ccc2nc(C)cc(N3CCOCC3)c2c1	>57	i
COc1ccc(CCNC(=O)CSc2nc(N)c3c(C)c(C)oc3n2)cc1OC	>57	i
COc1ccc(/C=C/C2=NC(=C\N(C)C)/C(=O)O2)cc1	i	·
O=C(NC1CCCCC1)C1CCN(c2nccs2)CC1	>57	i
O=C(c1ccccc1)c1nnc(-c2ccncc2)o1	·	i
COc1ccc2[nH]c(=O)c(CN(C(=O)c3ccncc3)C(C)(C)C)cc2c1	>57	i
CCOC(=O)c1c(NC(=O)c2nn(CC)cc2Br)c(C#N)cn1-c1ccccc1	>57	i
O=c1ccc(S(=O)(=O)N2CCC(Cc3ccccc3)CC2)c[nH]1	>57	i
Fc1ccc(-c2nnc(NC3=NCCCCC3)o2)cc1	4.5*	i
CN(Cc1cccs1)C(=O)COc1cccc(-n2cnnn2)c1	>57	i
COC(=O)c1cccc(NC(=O)CSc2nnnn2C)c1	>57	i
CN1CCN(C(=O)c2cccc(COc3cc(Cl)ccc3Cl)c2)CC1	>57	i
COc1ccc(Oc2ncc3nc(C)c(=O)n(-c4ccccc4)c3n2)cc1	·	i
O=C(c1n[nH]c(=O)c2ccccc12)N1CCN(C2c3ccccc3-c3ccccc32)CC1	>57	i
COc1ccc(C2C(=O)N(C3CCCCC3)CC(=O)N2C2CCCC2)cc1 (stereo not given)	>57	i
N#CCSc1nc2[nH]ncc2c(=O)n1-c1ccccc1Br	>57	i
CCOc1ccc2nc(NC(=O)c3ccoc3C)sc2c1	·	i
O=C(OCC(=O)N1CCN(C(=O)c2ccco2)CC1)c1cn(-c2ccccc2)nc1-c1ccccc1	·	i
N=c1c(C(=O)NCc2ccc3c(c2)OCO3)cc2c(=O)n3ccccc3nc2n1Cc1cccnc1	>57	i
CCN(CC)c1nc2n(c(=O)n1)CCN2CC	>57	i
Cc1ccc(C(=O)Nc2ccc(S(=O)(=O)N3CCc4ccccc4C3)cc2)o1	>57	i
O=C(O)C1CCCCC1C(=O)Nc1ccccc1F (stereo not given)	>57	i
O=NN(Cc1ccc(Cl)cc1)[C@@H](C(=O)O)c1ccccc1	·	i
O=C(O)CCC(=O)N(Cc1ccco1)c1nc(-c2ccccc2)cs1	>57	i
Cc1ccnc(NC(=O)C2CCN(S(=O)(=O)c3cccc4nsnc34)CC2)c1	i	i
CCN1C(=O)/C(=C2/C=CC=CN2C)OC1=S	·	i
Cc1sc2ncn3ncnc3c2c1C	>57	i
O=C(NCc1ccco1)C1CC(=O)N(c2ccc(F)cc2)C1 (stereo not given)	>57	i
Cc1ccc(CC(CC(=O)O)C(=O)NC2CCCCC2)cc1 (stereo not given)	·	i
O=S(=O)(N1CCCCC1)N1CCN(S(=O)(=O)N2CCCCC2)CC1	>57	i
COc1ccc2nc3oc(C(=O)N4CCCCC4)cc3cc2c1	?	i
Cc1ncoc1C(=O)Nc1ccc(Oc2ccccc2)cc1	·	i
CCN(Cc1ccncc1)C(=O)[C@@H](CO)c1ccccc1	·	i
O=S(=O)(c1ccc(F)c(Cl)c1)N1CCCC1	i	i
Other compounds follow.
SMILES	PK Bst	YjeE inh
O=C1CC[C@](CCc2nc3ccccc3[nH]2)(c2ccccc2)C(=O)N1	·	i
Cc1ccc2c(c1)c1c(n2CC(O)CNC(CO)(CO)CO)CCCC1 (stereo not given)	·	i
Cc1nnc(SCc2cc(=O)[nH]c(Nc3nc(C)c4ccccc4n3)n2)s1	>57	i
CC(=O)NC12CC3CC(C)(C1)CC(NC(C)=O)(C3)C2	·	i
COc1ccc(NCc2cc3cc(OC)ccc3[nH]c2=O)cc1	·	i
COc1ccccc1-n1cc(C(=O)NCC(=O)N2CCN(c3ccccn3)CC2)c2ccccc2c1=O	?	i
O=C(CN1CCOCC1)Nc1ccc(Oc2ccc(NC(=O)CN3CCOCC3)cc2)cc1	>11	i
CC(=O)N1CCC2(CCCN(C(=O)Nc3cccc(C#N)c3)C2)CC1	·	i
Cc1cc(CNC(=O)[C@H](C)[C@@H]2C[C@@]2(C)[C@@H](NC(=O)OCc2ccccc2)c2ccccc2)nn1C	·	i
N[C@](CC1c2ccccc2Oc2ccccc21)(C(=O)O)[C@@H]1C[C@@H]1C(=O)O	·	i
Nc1nc(CN2CCCCC2)cs1	>57	i
COc1ccc(NC(=O)C2CC(=O)NC(Nc3cccc(C)c3)=N2)cc1 (stereo not given)	>57	i
COc1ccc(S(=O)(=O)N(C)CC(=O)N2CCOCC2)cc1	>57	i
CCOc1cc(C)c(Cl)cc1S(=O)(=O)n1cnc2ccccc21	>57	i
CC1=C(C(=O)OCc2ccccc2)C(c2ccccc2-c2ccccc2)NC(=O)N1CCCCCC(=O)O (stereo not given)	·	i
Nc1c(C(=O)CCC(=O)O)oc2ccc(Cl)cc12	·	i
COC(=O)c1cccc(NC(=O)Cn2cnc3c2c(=O)n(C)c(=O)n3C)c1	>57	i
COc1ccc(C(N)=O)cc1N	·	i
COc1ccc2c(c1)C=CC1(O2)N(CCO)c2ccccc2C1(C)C (stereo not given)	>57	i
COc1ccccc1-c1cc(C(=O)Nc2c(F)cc(F)cc2Br)no1	>57	i
Cn1c(=O)c2c(nc(SCc3cc4c(cc3Cl)OCO4)n2C)n(C)c1=O	·	i
O=C(/C=C/Nc1ccc(F)c(Cl)c1)c1ccco1	i	i
COc1ccccc1OCc1nnc(SCC(=O)c2cc(Cl)ccc2OC)o1	>57	i
Nc1ccc(-c2nc3ccc(-c4nc5ccccc5o4)cc3[nH]2)cc1	>57	i
Cn1c(=O)c2[nH]c(N3CCOCC3)nc2n(-c2ccccc2)c1=O	>57	i
CCC(=O)Nc1ccc(Nc2ccccc2)cc1	>57	i
CCCS(=O)(=O)c1cn2cccc(N)c2c1S(=O)(=O)CCC	>57	i
Cc1nccn1CCc1nc(N)nc(N)n1	>57	i
Cc1nn2c(=O)c(NC(=O)c3ccc(F)cc3)cnc2s1	>57	i
COC(=O)N1CCN(c2ccc(OC)cc2)CC1	>57	i
O=C(NCC1CCCO1)C1CC(=O)N(c2ccc(F)c(Cl)c2)C1 (stereo not given)	·	i
O=C1NC2(CCCCC2)N=C1c1ccc(F)cc1	>57	i
NC(=O)COC(=O)c1cc(S(=O)(=O)N2CCOCC2)ccc1N1CCCCC1	>57	i
CCOC(=O)/C(C(N)=NCc1ccco1)=C(/O)c1ccccc1	>57	i
CCN1CCN(Cc2c(C)[nH]c3ccc(OC)cc3c2=O)CC1	>57	i
O=C(O)/C=C/c1ccc(O)c(O)c1	>11	·

Structures listed so far that have a cyano group, in the order listed:
SMILES	PK Bst	YjeE inh
C=CCSC1=C(C#N)C(c2cc(Br)c(O)c(OC)c2)CC(=O)N1 (stereo not given)	>57	i
CCOC(=O)c1c(NC(=O)c2nn(CC)cc2Br)c(C#N)cn1-c1ccccc1	>57	i
N#CCSc1nc2[nH]ncc2c(=O)n1-c1ccccc1Br	>57	i
CC(=O)N1CCC2(CCCN(C(=O)Nc3cccc(C#N)c3)C2)CC1	·	i

The results go on.
SMILES	PK Bst	YjeE inh
COc1ccc(S(=O)(=O)NC2CCCC2)cc1Br	·	i
CCN(c1ccccc1)S(=O)(=O)c1cccc(C(=O)O)c1	>57	i
COc1ccccc1N1CCN(CCCCOc2ccc(F)cc2)CC1	>26	·
CC(=O)NC(Cc1ccc(F)cc1)C(=O)N1CCN(C(=O)NCc2ccccc2)CC1 (stereo not given)	>57	i
ON=Cc1cccn1-c1ccccc1	·	i
CC(C)OCCCNc1ncc2c(n1)CC(c1ccc(N(C)C)cc1)CC2=O (stereo not given)	>57	i
OC1(c2ccc(F)cc2)CCN(Cc2ccccc2)C1 (stereo not given)	>57	i
COc1ccc(C(=O)c2sc(NC(C)C)nc2N)cc1OC	>26	·
CCOc1cc(C(=O)NCC2CCCO2)cc(OCC)c1OCC (stereo not given)	>57	i
CN(c1ccc(C(=O)NC2CC2)cc1)S(=O)(=O)c1ccccc1	>57	i
COc1ccc2nc3c(cc2c1)c(NC(=O)c1cccs1)nn3CC(C)C	i	i
COc1cccc(Cn2c(=O)cnc3cnc(OC)nc32)c1	·	i
CCN(CCNC(=O)CCCn1nc(C)n2c(cc3sccc32)c1=O)c1ccccc1	·	i
CC(C)NC(=O)N1CCC2(CC1)CCN(C(=O)c1cccc(F)c1)CC2	·	i
CC1(C)CC(=O)C(C=NC2CC(C)(C)NC(C)(C)C2)=C(O)C1	·	i
O=C(Cc1ccccc1)Nc1ccc2oc(-c3ccncc3)nc2c1	>57	i
CCOC(=O)CNC(=O)CSc1nc(N(C)C)nc(N2CCOCC2)n1	>57	i
CC(=O)c1cccc(NC(=O)NC(C)c2ccncc2)c1 (stereo not given)	>57	i
O=C(Cn1nnc2ccccc2c1=O)Nc1cc(C(F)(F)F)ccc1N1CCOCC1	>57	i
c1ccc(-n2ncc3c2ncn2nc(-c4ccco4)nc32)cc1	·	i
Cc1ccc(C(C(=O)NC2CCCCC2)N2CCCC2)cc1 (stereo not given)	>57	i
COc1nc(-c2ccccc2)cc(-c2ccc(OC)c(OC)c2)n1	·	i
Cc1cc(N2CC(C(=O)O)CC2=O)ccc1Br (stereo not given)	>57	i
Cc1ccc(NC(=O)CCCCCC2NC(=O)NC2C)cc1 (stereo not given)	>57	i

A second format for part of the listing above.
Results follow in this order: PK Bst, YjeE inh
> O=C(Cn1nnc2ccccc2c1=O)Nc1cc(C(F)(F)F)ccc1N1CCOCC1
→ >57, i
> c1ccc(-n2ncc3c2ncn2nc(-c4ccco4)nc32)cc1
→ ·, i
> Cc1ccc(C(C(=O)NC2CCCCC2)N2CCCC2)cc1 (stereo not given)
→ >57, i
> COc1nc(-c2ccccc2)cc(-c2ccc(OC)c(OC)c2)n1
→ ·, i
> Cc1cc(N2CC(C(=O)O)CC2=O)ccc1Br (stereo not given)
→ >57, i
> Cc1ccc(NC(=O)CCCCCC2NC(=O)NC2C)cc1 (stereo not given)
→ >57, i

Additional compounds.
SMILES	PK Bst	YjeE inh
COc1cc(C(=O)O)ccc1OC(C)=O	>57	i
CC1(C)C(c2ccc(Cl)cc2)=[N+]([O-])C2(CCCC/C2=N\O)N1O (stereo not given)	·	i
CC(=O)Cn1c(CN2CC(C)CC(C)C2)nc2c1c(=O)n(C)c(=O)n2C (stereo not given)	>57	i
Cc1cc(C(F)F)n2nc(C(=O)NCc3ccccc3F)nc2n1	>57	i
COC(=O)C1C(=O)C2=C(CC1C)NC(C)=C(C(=O)OC1CCCC1)C2c1ccc(N(C)C)cc1 (stereo not given)	>57	i
Cc1cccc(OCC(=O)N2CCN(C(=O)CCC3CCCC3)CC2)c1	·	i
Cc1ccc(-c2nn(C)c(=O)c3ccccc23)cc1S(=O)(=O)NCCO	>57	i
Cc1noc(C)c1S(=O)(=O)Nc1ccc(C(=O)NCc2ccccc2)cc1	>57	i
CN1CCN(c2ncc3nc(CCc4ccccc4)c(=O)n(CCc4ccccc4)c3n2)CC1	·	i
Cn1cccc1Cc1nnc(SCC(=O)Nc2ccccc2)n1-c1ccc(F)cc1	·	i
Cc1cccn2c(=O)c3cc(C#N)c(=N)n(Cc4cccnc4)c3nc12	>57	i

3 entries from above, sorted by number of heavy atoms, largest number first:
SMILES	PK Bst	YjeE inh
COC(=O)C1C(=O)C2=C(CC1C)NC(C)=C(C(=O)OC1CCCC1)C2c1ccc(N(C)C)cc1 (stereo not given)	>57	i
Cn1cccc1Cc1nnc(SCC(=O)Nc2ccccc2)n1-c1ccc(F)cc1	·	i
Cc1ccc(-c2nn(C)c(=O)c3ccccc23)cc1S(=O)(=O)NCCO	>57	i
